Source: PubChem
Ba CapD inh: blocks the Bacillus anthracis CapD enzyme; purified CapD enzyme, fluorescence intensity read-out; stronger effect = lower value; some hits fall short of the stated cut; z-score (concentration not given with the values); hit rate 0.23% among 140,000; AID 492967;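 active means z-score under -4 in either of two replicates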;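 further: stock transfer was 100 nL into about 40 µL; score is relative to mean and spread of the plate; one replicate is shown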
AID504770: E. coli YBA685 growth inhibition, screen for V. cholerae RctB inhibitors; AID 504770; E. coli YBA685 rctB-dependent plasmid, OD600 growth, 3 h; stronger effect = lower value; hit rate 0.27% among 130,000; z-score (no concentration beside the values);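 active means z-score under -2 on both plates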;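 further: wells of about 30 µL received 100 nL stock; score is relative to mean and SD of the test wells; the first replicate is given; strong numbers were not always called active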
* hit, by the source's call; . = no result given.

compound,AID504770,Ba CapD inh
Nc1ccc(-c2nc3ccc(N)cc3s2)cc1,-0.05,63.5
CCN(CC)C(=O)Nc1cnc2ccccc2c1,-0.25,.
COc1cccc(C2C(C#N)=C(N)OC3=C2C(=O)CC(c2ccccc2)C3)c1OC (stereo not given),.,0.035
O=S(=O)(NCCCn1ccnc1)c1cc(Cl)ccc1Cl,-1,-0.265
O=C(CSc1nnc(SCC(=O)NCCSCc2ccco2)s1)NCCSCc1ccco1,.,-0.47
Cc1cccc(C#CCN2CCCCC2)c1,-0.4,-0.765
COc1cc(/C=C2/SC(=O)N(c3ccc(C)cc3)C2=O)ccc1O,-0.2,0.05
CN(NS(=O)(=O)c1ccc(F)cc1)c1ncc(C(F)(F)F)cc1Cl,.,-0.265

Other records
compound,AID504770,Ba CapD inh
Cc1ccc2c(c1)sc(=NC(=O)c1cc(Cl)sc1Cl)n2C,-0.85,0.31
CCOCC(=O)Nc1c(C(=O)Nc2ccc(F)c(F)c2)oc2ccccc12,0.15,.
COC(=O)C(CO)NC(=O)c1ccccc1 (stereo not given),-1.1,-0.325
O=C(OCC1CCC1)N1CCC2(CC1)C(=O)NCN2c1ccccc1,.,-0.64
O=S(=O)(NCc1cccnc1)c1cc(Cl)c(Cl)s1,.,-0.54
CC(=O)Nc1ccc(C(O)(C(F)(F)F)C(F)(F)F)cc1,-1.55,0.185
O=C1CSC(N(c2ccccc2)c2ccccc2)=N1,0.05,.
CN(C)c1ccc(CN2CCC(NC(=O)c3ccc(-n4nc(-c5ccccc5)cc4-c4ccccc4)cc3)C2)c2ccccc12 (stereo not given),.,17.4

(further entries)
compound,AID504770,Ba CapD inh
CCCN1CCC(N(C(=O)c2ccc(NC(=O)C3CCN(c4ccc(C(F)(F)F)cn4)CC3)cc2)C2CC2)CC1,.,3.14
O=C(Cn1c(-c2cccs2)cc2ccccc21)NCC1CCCO1 (stereo not given),0.05,86.9
Clc1ccc2nc(-n3nc4ccccc4n3)nc(-c3ccccc3)c2c1,0.35,9.27
CCOC(=O)CSc1nc2ccccc2c(=O)n1C1CCCC1,-1.7,-0.7
O=C(O)Cc1c(-c2ccccc2)c2cc(Br)ccc2[nH]c1=O,1.3,1.45
O=C(Oc1ccc2cc(Br)ccc2c1)c1ccncc1,-0.25,-1.28
CCc1ccccc1NC(=O)c1cc(-c2ccc(Br)cc2)on1,-0.9,-0.98
COc1ccc(C2C(C#N)=C(N)OC3=C2C(=O)CC(C)(C)C3)cc1COc1ccccc1Br (stereo not given),.,-0.115

Remaining list, next part
compound,AID504770,Ba CapD inh
O=C(CCN1CCCCC1)NCC1OCCc2ccccc21 (stereo not given),-0.25,-0.325
COc1ccc(N2CCN(C(=O)NC(=O)c3ccccc3)CC2)cc1,2.35,.
CCCOC(=O)CSC1=C(C#N)C(c2ccccc2)CC(=O)N1 (stereo not given),-0.75,-0.165
CCN(Cc1cc(=O)n2oc(C)cc2n1)c1ccc(Cl)cc1,1,1.52
CCCc1ccc(-c2c3c(c(-c4ccccc4)n2-c2ccc(N)cc2)C(=O)c2ccccc2C3=O)cc1,.,-0.06
COc1ccc(CCNC(=O)CCn2c(SCc3cc(=O)n4ccccc4n3)nc3ccccc3c2=O)cc1OC,.,-0.37
CCc1ccc(Oc2coc3cc(OC(=O)C4CCCCC4)ccc3c2=O)cc1,0.5,-0.62
COc1cc2cc(C)c(=S)[nH]c2cc1OC,0.25,.

Next entries:
compound,AID504770,Ba CapD inh
O=c1c2c(nc3c(-c4ccccc4)c[nH]n13)CCC2,0,31.2
Cc1nc(N2CCCC2=O)sc1C(=O)O,-0.25,.
CC1=NN(c2c(Cl)cc(Cl)cc2Cl)C(=O)C1,.,0.44
CC(=O)Oc1cccc(/C=C2\Sc3ccccc3C2=O)c1,0.15,-0.515
COc1cccc(-c2noc(Cc3ccccc3)n2)c1,1.2,-0.715
O=C(CSCc1ccccc1Cl)Nc1c[nH]c(=O)[nH]c1=O,0.05,0.61
CC1=NNC(=O)C1CC(=O)N/N=C/c1ccc(N(C)C)cc1 (stereo not given),-0.35,40.9
Cc1ccc2c(c1Br)C1(C(=O)N2)C(C#N)=C(N)OC2=C1C(=O)CC(c1ccco1)C2 (stereo not given),.,-0.17

The listing continues.
compound,AID504770,Ba CapD inh
CCOC(=O)Cc1csc(NS(=O)(=O)c2ccccc2)n1,-1.5,0.52
NC(=O)CSc1nc2c([nH]c3ccccc32)c(=O)n1-c1cccc(Cl)c1,0,-0.135
O=[N+]([O-])c1ccc(OCCCCOc2ccc([N+](=O)[O-])cc2)cc1,.,-0.425
COc1ccc(C2C(C#N)=C(N)N(N(C)C)C3=C2C(=O)CC(c2ccccc2)C3)cc1OC (stereo not given),.,-0.485
COc1c2ccoc2nc2c(OC)c(O)ccc12,-0.35,20.1
COc1ccccc1NC(=O)c1c(NC(=O)c2ccccc2F)sc2c1CCCCC2,.,3.79
O=C1/C(=C/c2ccccc2OC(=O)c2cccnc2Cl)Sc2ccccc21,.,-0.135
CCCCn1c(=N)n(CC(O)COc2ccccc2)c2ccccc21 (stereo not given),-0.1,.

Following part.
compound,AID504770,Ba CapD inh
CC(=O)Oc1ccc(S(=NS(=O)(=O)c2ccccc2)c2ccc(OC(C)=O)cc2)cc1,1.75,-0.985
O=C(NCCC1=CCCCC1)c1cc(-c2ccco2)[nH]n1,0.65,1.04
CC(NCC(O)COc1ccc2c(c1)CCC2)c1ccccc1 (stereo not given),-1.45,-0.58
Cc1cc(C)c(Cn2cccc2C2=NC(C)CO2)c(C)c1 (stereo not given),-0.5,-0.52
CCCOC(=O)c1[nH]c2c(c1C)C(=O)CCC2,-0.9,1.02
CC1CCCC(NC(=O)c2cc(S(=O)(=O)N3CCCCC3)c[nH]2)C1C (stereo not given),-1.1,-0.895
COc1ccccc1NC(=O)c1c(N=Cc2c(O)ccc3ccccc23)cnn1C,1.75,-0.445
COC(=O)C(C)Sc1nnc(-c2c[nH]c3ccccc23)n1-c1ccc(F)cc1 (stereo not given),-1.15,-0.705

Continued.
compound,AID504770,Ba CapD inh
Cc1nc(NC(C)C(=O)O)c2nc(C)oc2n1 (stereo not given),-0.3,0
Cc1c(N=Cc2ccccc2)c(=O)n(-c2ccccc2)n1C,.,-0.065
CC(C)c1ccc(NC2C=CS(=O)(=O)C2)cc1 (stereo not given),-0.35,0.235
Cc1ccnn2cc3c(=O)n(C)c(=O)n(C)c3c12,1.45,-0.35
Cc1cc(Cl)ccc1OCC(=O)NN1C(=O)C2C3C=CC(C3)C2C1=O (stereo not given),-0.4,.
CC(=O)Nc1ccc(NC(=O)COC(=O)Cc2c[nH]c3ccccc23)cc1,-1.1,.
CC(C)C1N=C2c3ccccc3N=C(SCc3cc(=O)n4cc(Br)ccc4n3)N2C1=O (stereo not given),-0.15,3.06
Cc1cc(C)c2c(n1)sc1c(SCc3ccccc3)nc(C)nc12,0.05,0.025

Part of the list above, with two lines to a compound.
Every second line gives: AID504770, Ba CapD inh
> COc1cccc(-c2noc(Cc3ccccc3)n2)c1
    1.2, -0.715
> O=C(CSCc1ccccc1Cl)Nc1c[nH]c(=O)[nH]c1=O
    0.05, 0.61

(cont.)
compound,AID504770,Ba CapD inh
O=C(Nc1ccc(SC(F)F)cc1)c1ccc2c(=O)n3c(nc2c1)CCC3,-1.4,.
CC(C)CCSc1nc2ncn(C)c2c(=O)[nH]1,-0.9,-0.085
Cc1cccc(NS(=O)(=O)c2cc(C(=O)NCc3ccco3)ccc2C)c1,-0.15,-0.72
O=C(O)c1ccc(/C=c2/sc3n(c2=O)CCN=3)cc1,0.9,.
O=C(COc1ccccc1)NC(c1ccccc1)c1cc(Cl)c2cccnc2c1O (stereo not given),.,0.91
O=C(Nn1c(=O)[nH]c2ccsc2c1=O)c1ccccc1,-0.7,0.075
O=C(CCC1CCCCC1)NC1CCCC1,-0.05,0.085
Cn1c(=O)c2c(nc3n(Cc4ccco4)c(-c4ccc(Cl)cc4)cn23)n(C)c1=O,.,-0.31

(next part)
compound,AID504770,Ba CapD inh
O=C(c1cnccn1)N(Cc1ccc(Cl)cc1)Cc1cc2cc3c(cc2[nH]c1=O)OCCO3,0.4,.
O=c1oc(-c2ccc(Br)cc2)nc2scc(-c3cccs3)c12,.,-0.08
O=C(Cc1ccccc1)NCC(=O)N1CCN(C(=O)c2ccco2)CC1,0.55,0.545
O=C(C/C=N/OCc1ccc(F)cc1Cl)c1cnc(-c2ccccc2)s1,.,-0.245
CC1CC(=O)Nc2ccccc2N1C(=O)c1cccs1 (stereo not given),-0.55,0.065
O=C(Nc1cccc(Cl)c1)Nc1ccc2nc3n(c(=O)c2c1)CCC3,-1.1,4.09
O=C1C(=O)N(CCCN2CCOCC2)C(c2cccc(Br)c2)/C1=C(\O)c1ccccc1 (stereo not given),.,-0.235
CCN1C(=O)/C(=C\C=C2/N(CC)c3ccc(C(=O)OC)cc3N2CC)SC1=S,-0.25,.

(list continues)
compound,AID504770,Ba CapD inh
Cc1cccc(N(Cc2ccccc2)C(=O)CSc2nc(N)nc(N)n2)c1,-1.5,.
O=C(c1ccc2c(=O)n3c(nc2c1)CCCCC3)N1CCCc2ccccc21,0.55,.
Cc1ccc(SCC(=O)Nc2nnc(CCS(=O)(=O)c3ccc(Cl)cc3)s2)cc1,.,1.01
Cc1ccc(S(=O)(=O)NC(c2ccccc2)c2nnc(-c3ccccc3)o2)cc1 (stereo not given),-0.2,0.25
CN1Cc2cccc(C(=O)O)c2C1=O,-0.7,-0.095
Cc1cc(S(=O)(=O)N2CCN(Cc3ccccc3)CC2)c(Cl)cc1Cl,.,-0.225
O=C(Nc1cccc(O)c1)c1noc2c1CCCC2,-0.35,-0.88
Oc1ccc(C=Nc2ccc(N3CCOCC3)cc2)cc1O,-0.2,-0.585

Remaining list, next part.
compound,AID504770,Ba CapD inh
Cc1cc(Oc2ccccc2F)nc(N)n1,-0.1,0.49
CCOc1ccc(C(=O)NCC(=O)N2CCCC2)cc1,-0.7,.
COc1ccc2c(c1)c(C(=O)OCC(N)=O)c(C)n2C1CCCCC1,-0.45,.
CCOC(=O)c1sc(N)c(C#N)c1COC(=O)c1ccc2c(=O)n3c(nc2c1)CCC3,0.65,.
COc1cc(OC)cc(C(=O)N2c3ccccc3Sc3ccccc32)c1,.,-0.145
O=C(COc1ccc(Cl)cc1)NC1CN2CCC1CC2 (stereo not given),-0.35,-1.04
O=C(NC1CCCC1)C(c1ccccc1)N(CC1CCCO1)C(=O)Cn1nnc2ccccc21 (stereo not given),-2,.
COc1ccc(NC(C)=O)cc1NC(=O)c1cc2cccnc2n(C)c1=O,-0.95,.

More results follow:
compound,AID504770,Ba CapD inh
O=S(=O)(c1ccc(Cl)cc1)N1CCCC1c1nc2ccccc2s1 (stereo not given),.,-0.75
C=CCNC(=S)N1CCN(C(=S)NCC=C)CC1,-0.6,.
O=C(c1ccccc1)c1nnc(-c2ccccc2)s1,-0.45,-0.925
COC(=O)c1ccc(/C=C2/SC(=Nc3cccnc3)NC2=O)cc1,-0.5,0.11
COc1ccc(N(C)C(=O)c2cnc(N3CCN(c4ncccn4)CC3)c3ccccc23)cc1,.,0.44
Cc1cccc(C)c1NC(=O)CN1C(=O)c2ccccc2S1(=O)=O,1.9,0.17
O=S(=O)(Nc1cc2c3c(oc2c2ccccc12)CCCC3)c1ccc(Cl)cc1,.,0.085
O=C(O)C(CO)N=Cc1c(O)c2ccccc2oc1=O (stereo not given),-3.05,-0.995

Some of the entries so far, field by field:
CN(C)c1ccc(CN2CCC(NC(=O)c3ccc(-n4nc(-c5ccccc5)cc4-c4ccccc4)cc3)C2)c2ccccc12 (stereo not given)
  AID504770 = . | Ba CapD inh = 17.4

Cc1cccc(C#CCN2CCCCC2)c1
  AID504770 = -0.4 | Ba CapD inh = -0.765

COc1cc(OC)cc(C(=O)N2c3ccccc3Sc3ccccc32)c1
  AID504770 = . | Ba CapD inh = -0.145

Nc1ccc(-c2nc3ccc(N)cc3s2)cc1
  AID504770 = -0.05 | Ba CapD inh = 63.5

The list continues:
compound,AID504770,Ba CapD inh
CC(=O)c1cc(F)ccc1OCc1ccccc1,.,3.53
COc1cc(NC(=O)c2csc(Br)c2OC)cc(OC)c1OC,2.25,0.13
O=C(OCc1cc(=O)n2ccsc2n1)C1(c2ccccc2)CC1,0.3,.
Cc1cnc(NC(=O)c2ccc(OCC3CCCO3)cc2)s1 (stereo not given),0.9,.
Cc1ccc(Cn2nnc3c(=O)n(Cc4ccc(C(F)(F)F)cc4)cnc32)cc1,0.1,-0.085
Cc1ccc2ncccc2c1[N+](=O)[O-],.,-1.27
O=C(c1ccco1)N1CCCN(C(=O)c2ccco2)CC1,-0.3,.
CCOc1ccc(C(=O)NC2CCN(C(=O)NCc3ccccc3)CC2)cc1,-0.25,.

(listing goes on)
compound,AID504770,Ba CapD inh
Cc1cc(OCC(=O)N(C)C)c2c3c(c(=O)oc2c1)CCCC3,0.3,0.25
COc1ccc(S(=O)(=O)N(CC(=O)Nc2ccc3c(c2)OCCO3)c2ccccc2)cc1OC,-0.95,-0.47
O=C(O)CCC(=O)N1N=C(c2ccc([N+](=O)[O-])cc2)CC1c1ccccc1Cl (stereo not given),.,-0.915
COc1ccc(OC)c(C2Oc3c(OC)cccc3C3CC(c4cccs4)=NN32)c1 (stereo not given),.,-0.455
O=C(O)/C=C\C(=O)N1CCC(O)(c2ccc(Br)cc2)CC1,.,-0.475
CCOC(=O)c1cc(C(=O)OC)c(C)nc1N1CCCN(Cc2ccc(F)cc2)CC1,-0.3,1.41
COC(=O)C1=C(C(=O)OC)SC(=C2C(=S)C(C)(C)N(C(=O)c3cccc(OC)c3)c3c(C)cccc32)S1,.,0.205

Rows are unselected. Share with any hit: about 0.41%.
